Compound activity: PubChem, National Center for Advancing Translational Sciences (NCATS)
VACV mCherry inh: qHTS for Stage-Specific Inhibitors of Vaccinia Orthopoxvirus: mCherry Reporter Primary qHTS. Vaccinia virus mCherry reporter infection, fluorescence; about a quarter of the inactives have no number. Potency, µM (series often up to 36.5 µM), without a hit: at the top dose activity change, negative = inhibition, actives largely listed as inhibitors. 310,000 compounds, 0.63% hits; active = well fitted inhibition curve with a large enough effect; inconclusive = small, poorly fitted or top-dose-only effect; inactive = no such curve, though single readings can be large or run the other way; tested in A549 cells; also: nearly all actives have a fitted effect of over 35% in size; inactives centre near -10
VACV Venus inh: qHTS for Stage-Specific Inhibitors of Vaccinia Orthopoxvirus: Venus Reporter Primary qHTS; Potency, µM (top dose mostly 36.5 µM), inactives show at the highest dose activity change, negative = inhibition, most hits filed as inhibitors; 330,000 compounds, 0.46% hits; Vaccinia virus Venus reporter expression, fluorescence; active means well fitted inhibition curve with a large enough effect; inconclusive means small, poorly fitted or top-dose-only effect; inactive means no such curve, though single readings can be large or run the other way; tested in A549 cells; also: nearly all actives have a fitted effect of over 30% in size; inactives centre near -10
Numbers without * were called inactive; i = inactive; ? = inconclusive; · = no result given; & = joins results of further samples; [ ] = remark or other dose. % is scaled to controls: 0 for no effect and ±100 for the full control effect; potency is read from the fitted curve at half-maximal effect.

1) N=c1c(C(=O)NCC2CCCO2)cc2c(=O)n3ccccc3nc2n1C1CCCC1 (configuration not stated)
2) CCC1CCCCN1Cc1nc2c(c(=O)n(C)c(=O)n2C)n1CC(C)C (configuration not stated)
3) O=C(CNC(=O)C1CCCCC1)OCC(=O)c1cccc(Cl)c1
4) COc1ccc(C(=O)NNC(=O)c2ccc(C(C)(C)C)cc2)cc1
5) CCOC(=O)C1CCN(C(=O)CN(c2ccc3c(c2)OCO3)S(C)(=O)=O)CC1
6) O=c1cccc2n1CC1CC2CN2CCCCC12 (configuration not stated)
7) COc1cc(OC)c(OC)cc1CN1CCN(S(=O)(=O)c2ccc(NC(C)=O)cc2)CC1
8) COC(=O)[C@@H](NC(=O)NC1CCCCC1C)C(C)C (some centres not stated)
assay / compound	1	2	3	4	5	6	7	8
VACV mCherry inh	-23%	-19%	28%	i	i	i	-5%	-7%
VACV Venus inh	-12%	-7%	-5%	-5%	1%	0%	-16%	3%

9) CCC(C)n1c(SCc2ccccc2)nc2ccsc2c1=O (configuration not stated)
10) CC1(C)Cc2ccccc2-c2nc(NCCO)n(-c3ccccc3)c(=O)c21
11) c1ccc(COc2ncnc3c2ncn3CCCNCCN2CCOCC2)cc1
12) COc1ccccc1NC(=O)COc1ccc(C(F)(F)F)cc1[N+](=O)[O-]
13) O=C(CCS(=O)(=O)Cc1ccccc1)Nc1ncc([N+](=O)[O-])s1
14) COc1ccccc1C(CC(=O)c1ccccc1)CC(=O)c1ccccc1
15) Cc1oc(-c2cccc(C(F)(F)F)c2)nc1CN1CCC[C@H]1CO
16) CCOC(=O)C1=C(c2cccc(Oc3ccccc3)c2)NC(=S)NC1C (configuration not stated)
assay / compound	9	10	11	12	13	14	15	16
VACV mCherry inh	-10%	·	i	i	-23%	-7%	?	·
VACV Venus inh	-19%	-7%	0%	-12%	?	-4%	-5%	-27%

17) CCN1CCN(C(=O)CN(C)S(=O)(=O)c2ccc3ccccc3c2)CC1
18) COc1cccc(CC(=O)Nc2ccc3nc(N4CCC(C)CC4)cc(C)c3c2)c1
19) O=C(Nc1ccon1)c1nc[nH]c1C(=O)NCc1ccccc1
20) CCNC(=O)C1(C)CCN1CCS(=O)(=O)c1ccc(C)cc1 (configuration not stated)
21) CCOC(=O)c1cc(C(=O)c2cc(Cl)ccc2O)coc1=N
22) CCOC(=O)CSc1nc2ccc(N)cc2s1
23) CCN(CC)S(=O)(=O)c1ccc2oc(C(=O)O)c(C)c2c1
24) O=C(CCCn1c(=O)c2ccccc2n(CC(=O)Nc2ccc(F)cc2F)c1=O)NCc1ccccc1Cl
assay / compound	17	18	19	20	21	22	23	24
VACV mCherry inh	-21%	0%	i	-8%	-1%	·	·	i
VACV Venus inh	-4%	0%	-19%	-4%	9%	-8%	95%[activator]	-12%

25) CCN(CC)CCNC(=O)c1sc2nc(-c3ccccc3)cn2c1C
26) CCCC(=O)N1CCC1(C)C(=O)NCc1ccc(SC)cc1 (configuration not stated)
27) O=C(Nc1ccc(F)cc1)C(c1cc2ccccc2o1)N1CCN(CC(=O)N2CCCC2)CC1 (configuration not stated)
28) CCOC(=O)c1cc2occc2n1CC(=O)N1CCCc2ccccc21
29) COc1cc(/C=N/NC(=O)C2c3ccccc3Oc3ccccc32)ccc1O
30) CCOC(=O)CCc1cccc2c1CCC2=O
31) COc1ccc(OC)c(/C=C/C(=O)N(C)CC(=O)Nc2cc(C)ccc2C)c1
32) CCC(C)Sc1nc2c(c(=O)[nH]c(=O)n2C)n1C (configuration not stated)
assay / compound	25	26	27	28	29	30	31	32
VACV mCherry inh	-12%	3%	1%	-25%	-21%	·	-3%	i
VACV Venus inh	-21%	6%	-20%	-11%	-14%	1%	-11%	-8%

33) COC(=O)c1c(/N=C/NOCc2ccc(Cl)cc2)sc2c1CCN(c1ncc(C(F)(F)F)cc1Cl)C2
34) COc1ccc(-c2onc(C)c2C)cc1S(=O)(=O)Nc1cccc(C#N)c1
35) COc1ccccc1NC(=O)C1=C(C)NC2=C(C(=O)CCC2)C1c1ccc2c(c1)OCO2 (configuration not stated)
36) CC(=O)Nc1ccc(CNC(=O)C[N+]2(C)CCOCC2)cc1
37) CS(=O)(=O)N1CCN(c2ccc([N+](=O)[O-])c(NCc3ccc(Cl)cc3)c2)CC1
38) Cc1cn([C@H]2C[C@H](O)[C@@H](/C=C/C(=O)NCCc3ccc4c(c3)OCO4)O2)c(=O)[nH]c1=O
39) CCCCNC(=O)c1nc(C2CCN(S(=O)(=O)c3c(OC)cccc3OC)CC2)oc1-c1ccccc1
40) Cc1cccc(N2CCN(C(=O)CSCc3c(C)noc3C)CC2)c1C
assay / compound	33	34	35	36	37	38	39	40
VACV mCherry inh	·	?	-2%	-8%	?	6%	0%	-13%
VACV Venus inh	-11%	-30%	-9%	2%	?	-4%	-13%	-25%

41) COc1cccc(-n2cnnc2SC(C)C(=O)NC2CCCC2)c1 (configuration not stated)
42) Cc1ccc(C)c(NC(=O)Cn2cnc3c(oc4ccccc43)c2=O)c1
43) Cc1cccc(CS(=O)(=O)Cc2ccc(C(=O)N3CCC4(CC3)OCCO4)o2)c1
44) O=C(Cc1ccccc1)Oc1cccc(N2C(=O)CCC2=O)c1
45) COC(=O)c1cc2oc(C)cc2n1Cc1ccc(Cl)cc1
46) Cc1ccc(C(=O)Nc2cccc(C(=O)NC3CCCC3)c2)cc1
47) CN(Cc1cccc(-c2ccncc2)c1)C(=O)Oc1ccccc1Cc1ccccc1
48) CCN(c1ccc(OCC(=O)OCC(=O)Nc2ccc(F)c(F)c2F)cc1)S(=O)(=O)c1ccccc1
assay / compound	41	42	43	44	45	46	47	48
VACV mCherry inh	i	-17%&-8%	24%	·	-3%	-10%	2%	-17%
VACV Venus inh	-11%	-16%&-11%	9%	-5%	-8%	-17%	-21%	-4%

Values in list order from the entries so far.
VACV mCherry inh, entries 44–48 → ·, -3%, -10%, 2%, -17%

Carrying on.
49) CCOc1ccc(N2C(=O)c3[nH]nc(-c4ccc(OC)cc4)c3C2c2cccs2)cc1 (configuration not stated)
50) CCc1ccc(-n2c3nc(=O)[nH]c(=O)c-3cc3c(C)nn(-c4ccccc4)c32)cc1
51) COc1ccc(-c2nc(CS(=O)CC(=O)NCc3cccnc3)c(C)o2)cc1OC (configuration not stated)
52) COc1ccc(C)c2sc(=NC(=O)C(C)C)n(C)c12
53) Cc1ccc(S(=O)(=O)N2CCOCC2)cc1C(=O)OCC(=O)N1CCCC1=O
54) COc1ccc(C2CC(=O)C3=C(C2)Nc2ncnn2C3c2ccccc2)cc1 (configuration not stated)
55) Cc1ccc(NC(=O)c2c(C)nc3sc(C(=O)NC4CCCC4)c(N)c3c2-c2ccco2)c(C)c1
56) O=[N+]([O-])c1ccc(C(O)CN2CCN(C/C=C/c3ccccc3)CC2)cc1 (configuration not stated)
assay / compound	49	50	51	52	53	54	55	56
VACV mCherry inh	?	3%	-4%	i	-9%	·	-1%	-21%
VACV Venus inh	?	-4%	0%	-9%	-8%	-28%	-2%	-10%

57) Cc1cc(N2CCOCC2)n2cc(-c3ccccc3)nc2n1
58) CCn1c(CNC(=O)c2ccc(OC)c(OC)c2)nnc1SCC(=O)Nc1ccccc1
59) COc1ccc(N2CCN(CC(O)COc3ccc(C)c(C)c3)CC2)cc1 (configuration not stated)
60) Cc1ccc2[nH]c(CSc3nnc(NC(=O)COc4ccccc4F)s3)cc(=O)c2c1
61) CCOC(=O)C(=O)N(C)c1c(CC)nc2c(OCc3ccccc3C)cccn12
62) Cc1[nH]c2ccccc2c1/C=N/NC(=O)CCC(=O)Nc1ccccc1
63) CCOC(=O)CC1c2ccccc2-n2nncc2CN1C (configuration not stated)
64) COc1cccc(N2C(=O)C(CC(=O)Nc3ccc(Cl)cc3)N(Cc3ccc4c(c3)OCO4)C2=O)c1 (configuration not stated)
assay / compound	57	58	59	60	61	62	63	64
VACV mCherry inh	i	-19%	?	-6%	i	-7%	i	-9%
VACV Venus inh	-5%	-11%	-19%&-7%	4%	-1%	-14%	-6%	-20%

65) Cc1ccn2c(/C=N/OCc3ccc(F)cc3)c(-c3ccc(Cl)cc3)nc2c1
66) CC1=C(C(=O)N2CCOCC2)CC(CC(=O)NC2CCCC2)C(=O)N1CCCN1CCCC1=O (configuration not stated)
67) CN(CC(=O)Nc1ccc(F)c(F)c1F)C(=O)c1ccc(=O)[nH]c1
68) COC(=O)c1sc2ccc(C)cc2c1C(=O)OC
69) Cn1nc(C(=O)OCC(=O)NC2CCS(=O)(=O)C2)c2ccccc2c1=O (configuration not stated)
70) O=C(Nc1ccccc1Cl)N1CCN(Cc2ccc3c(c2)OCO3)CC1
71) CC(=O)c1ccc(NC(=O)Nc2ccc3snnc3c2)cc1
72) COc1cccc(CN2C(=O)CCC2(C)C(=O)NCCc2ccc(OC)c(OC)c2)c1 (configuration not stated)
assay / compound	65	66	67	68	69	70	71	72
VACV mCherry inh	·	-7%	-20%	i	2%	i	-13%	i
VACV Venus inh	-28%	-13%	-8%	-7%	-4%	-10%	-10%	-19%

Retrieved by structure from the entries so far (six):
69) Cn1nc(C(=O)OCC(=O)NC2CCS(=O)(=O)C2)c2ccccc2c1=O (configuration not stated)
66) CC1=C(C(=O)N2CCOCC2)CC(CC(=O)NC2CCCC2)C(=O)N1CCCN1CCCC1=O (configuration not stated)
65) Cc1ccn2c(/C=N/OCc3ccc(F)cc3)c(-c3ccc(Cl)cc3)nc2c1
72) COc1cccc(CN2C(=O)CCC2(C)C(=O)NCCc2ccc(OC)c(OC)c2)c1 (configuration not stated)
67) CN(CC(=O)Nc1ccc(F)c(F)c1F)C(=O)c1ccc(=O)[nH]c1
70) O=C(Nc1ccccc1Cl)N1CCN(Cc2ccc3c(c2)OCO3)CC1
assay / compound	69	66	65	72	67	70
VACV mCherry inh	2%	-7%	·	i	-20%	i
VACV Venus inh	-4%	-13%	-28%	-19%	-8%	-10%

(listing goes on)
73) COC(=O)c1c(NC(=O)c2ccc(S(=O)(=O)N3CCCCC3C)cc2)sc2c1CCN(C(C)C)C2 (configuration not stated)
74) CCn1c(C(=O)N2CCCC(C(=O)O)C2)cc2sccc21 (configuration not stated)
75) Clc1ccc(-c2nnc(-c3ccco3)o2)cc1
76) Cc1cccc(NC(=O)CS(=O)(=O)c2c[nH]c3ccccc23)c1C
77) O=C(Nc1ccc(Sc2ccc(Br)cc2)cc1)c1ccco1
78) Cc1ccc(C)c(OCCC(=O)OCC(=O)NCCc2ccc(S(N)(=O)=O)cc2)c1
79) O=C(NCc1ccc(-c2nc3ccccc3s2)cc1)c1ccco1
80) CC(=O)c1cc(-c2ccccc2)n(CC(=O)Nc2cccc(C)c2)c1C
assay / compound	73	74	75	76	77	78	79	80
VACV mCherry inh	-15%	·	-12%	i	-17%	-15%	i	-2%
VACV Venus inh	-10%	-19%	-2%	-16%	-13%	-13%	-17%	-20%

Entries 79–80, reprinted for reference:
79) O=C(NCc1ccc(-c2nc3ccccc3s2)cc1)c1ccco1
80) CC(=O)c1cc(-c2ccccc2)n(CC(=O)Nc2cccc(C)c2)c1C
assay / compound	79	80
VACV mCherry inh	i	-2%
VACV Venus inh	-17%	-20%

(more compounds)
81) COCCCn1cc(C(=O)c2ccccc2OCC(=O)Nc2cccc(F)c2)cc(C#N)c1=O
82) COc1ccccc1NC(=O)C1=C(C)NC(=O)NC1c1cccs1 (configuration not stated)
83) COc1ccc(-c2nc(CSCC(=O)N3CCN(c4ccc(OC)cc4)CC3)c(C)o2)cc1
84) C[C@H](NC(=O)N1CCn2c1nc1ccccc12)C(=O)NCC1CCCO1 (some centres not stated)
85) CN(c1ccc(OCC(=O)OCC(=O)Nc2ccccc2)cc1)S(=O)(=O)c1cccs1
86) O=C1CN(C(=O)CSc2nncs2)c2ccccc2N1
87) CC1(C)CC(=Cc2cc(O)ccc2[N+](=O)[O-])C(=O)c2ccccc21
88) C=CCn1c(SCC(=O)c2ccc(O)c(O)c2)nnc1-c1cccc(Cl)c1
assay / compound	81	82	83	84	85	86	87	88
VACV mCherry inh	i	-11%	-28%	i	-11%	i	?	-16%
VACV Venus inh	-12%	-16%	?	-13%	4%	-7%	?	-21%

89) CCC(=O)NC(c1ccco1)c1cc(Cl)c2cccnc2c1O (configuration not stated)
90) Cc1cccnc1C(NC(=O)C1CCN(Cc2ccc(Cl)c(Cl)c2)CC1)c1ccc(Cl)cc1 (configuration not stated)
91) CCOc1ccc2nc(NC(=O)c3ccccc3)sc2c1
92) COc1cc2nc(NC3CCN(Cc4ccccc4)CC3)nc(N3CCCN(C)CC3)c2cc1OC
assay / compound	89	90	91	92
VACV mCherry inh	7.9µM*	i	-6%	?
VACV Venus inh	?	-16%	-7%	?
